Bioassay records (PubChem)
AF4-AF9 inh: inhibitors of AF4 peptide binding to AF9, primary screen, biochemical, AlphaScreen, biotin-AF4 peptide, FLAG-AF9, single point; Protein AF-9 (Homo sapiens), P42568; inhibition, % at 10 µM; 350,000 tested, 0.47% active;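 active = every replicate reaching a set inhibition limit, whatever the replicate mean, cut at about 25% in these data; inconclusive = mean inhibition reaches that limit but some replicates miss it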;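 also: 0% = plate neutral control median and 100% = total signal loss; the record names both 10 and 1 µM as test concentration; the first replicate is given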
Target sequence (P42568 whole entry, looked up): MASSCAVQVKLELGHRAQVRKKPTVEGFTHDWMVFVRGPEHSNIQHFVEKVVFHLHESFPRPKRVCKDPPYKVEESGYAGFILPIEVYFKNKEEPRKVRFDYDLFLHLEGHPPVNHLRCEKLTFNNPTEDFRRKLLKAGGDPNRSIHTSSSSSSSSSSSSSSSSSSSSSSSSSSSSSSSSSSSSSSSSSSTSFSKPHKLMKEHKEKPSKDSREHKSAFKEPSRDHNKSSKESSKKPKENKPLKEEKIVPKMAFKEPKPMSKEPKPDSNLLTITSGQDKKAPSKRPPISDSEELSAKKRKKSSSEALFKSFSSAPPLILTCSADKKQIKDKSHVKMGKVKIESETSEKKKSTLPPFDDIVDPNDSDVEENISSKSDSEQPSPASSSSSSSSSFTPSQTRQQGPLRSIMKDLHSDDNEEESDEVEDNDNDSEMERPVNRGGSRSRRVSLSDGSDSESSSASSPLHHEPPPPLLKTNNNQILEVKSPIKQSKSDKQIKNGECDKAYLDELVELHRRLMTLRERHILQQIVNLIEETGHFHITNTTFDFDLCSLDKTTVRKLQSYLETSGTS
HNF4A DNA FP: change in binding of human HNF4A to DNA, primary screen, biochemical, fluorescence polarization, FITC-DNA. AID 1224865, 2016. Hepatocyte nuclear factor 4-alpha (Homo sapiens), P41235. 1 h. 360,000 tested, 0.3% active. activity change, % at 10 µM; in the data active = activity change above about 30%, passing the limit was not always enough;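 also: controls were the assay level and a saturating level of protein; the project sought stronger binding though the title names inhibitors; some compounds called inactive have numbers as strong as hits; positive values seem to mean higher polarization but the record does not say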
Target sequence (P41235 whole entry, looked up): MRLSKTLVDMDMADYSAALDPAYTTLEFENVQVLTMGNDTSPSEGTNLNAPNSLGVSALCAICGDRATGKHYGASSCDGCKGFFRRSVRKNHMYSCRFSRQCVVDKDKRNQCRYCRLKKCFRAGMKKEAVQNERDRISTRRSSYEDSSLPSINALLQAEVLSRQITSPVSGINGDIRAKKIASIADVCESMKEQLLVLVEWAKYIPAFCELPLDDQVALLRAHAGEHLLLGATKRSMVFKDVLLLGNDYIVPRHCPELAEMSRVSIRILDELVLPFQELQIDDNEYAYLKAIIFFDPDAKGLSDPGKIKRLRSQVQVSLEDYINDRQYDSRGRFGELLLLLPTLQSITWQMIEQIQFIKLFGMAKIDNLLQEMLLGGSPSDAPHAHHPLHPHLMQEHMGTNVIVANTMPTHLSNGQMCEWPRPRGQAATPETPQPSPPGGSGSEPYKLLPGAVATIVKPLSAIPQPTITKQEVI
Ecoli growth: E. coli growth inhibition, primary screen, OD600. 330,000 tested, 0.21% active. OD600 absorbance (test concentration not listed). Escherichia coli growth, 23 h; hits give low values. AID 1053175, 2014;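 active = OD600 absorbance below the run mean of sample wells minus 3.6 SD, in any replicate, cut at about 0.56 in these data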;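 also: stock transfer was 300 nL into about 60 µL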
RanGTP-Impb inh: inhibitors of RanGTP-importin-beta interaction, primary screen, biochemical, FRET, CFP-Ran, YFP-importin-beta, homogeneous; Ran GTPase (GTP-bound) - importin-beta complex; inhibition, % (no concentration beside the values); 300,000 tested, 1.1% active; cell-free CFP-Ran/YFP-importin-beta FRET ratio;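 active = most replicates above 15%; inconclusive = exactly half above 15%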;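 also: 0% = DMSO wells and 100% = Ran loaded with GDP instead of GTP; wells of about 40 µL received 100 nL stock; the first replicate is given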
Vif A3G: inhibitors of Vif binding to APOBEC3G peptide, primary screen, biochemical, TR-FRET, GST-Vif 1-94, biotin-A3G peptide, dose response retest (AID 1117319); TR-FRET GST-Vif / biotin-A3G peptide binding; higher % means a stronger effect; test concentration not given here; strong numbers were not always called active; one-dose inhibition, %; IC50 in µM for titrated hits; 260,000 tested, 0.57% active;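 active = above the screen mean plus three standard deviations and confirmed in dose response; inconclusive = results disagree or hit not tested in dose response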;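 also: Vif residues 1-94 fused to GST binding biotinylated APOBEC3G peptide 110-148; 0% = full assay without inhibitor and 100% = GST in place of GST-Vif; retest series ran down from 100 µM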
UCH37 DUB inh: inhibitors of human UCH37 deubiquitinase, primary screen, biochemical, Ub-AMC cleavage, fluorescence | Ubiquitin carboxyl-terminal hydrolase isozyme L5 (Homo sapiens), Q9Y5K5 | purified proteasome/UCH37 | inhibition, % (concentration not given with the values) | 330,000 tested, 0.33% active;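 active = mean of two replicates above 20%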;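 also: 0% = compound-free wells with enzyme and 100% = wells lacking proteasome; stock transfer was 100 nL into about 20 µL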
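Material: Human UCH37 enzyme supplied as purified proteasome complex | Schedule: 30 min preincubation with enzyme, 25 min cleavage at room temperature | Detection: AMC fluorescence 355/460 nm | Measure: % inhibition of Ub-AMC cleavage fluorescence | Controls: Wells without proteasome as full block, compound-free enzyme plus substrate as uninhibited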
FGF22 binding: binders of human FGF22 protein, primary screen, FGF22 synaptogenesis inhibitor project, biophysical, thermal shift, single point; 340,000 tested, 1.5% active; recombinant FGF22 thermal shift, SYPRO orange fluorescence; percent of sucrose octasulfate shift, DMSO zero; calls only at 9.99 µM;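 active = melting point raised past a set limit in the mean and every replicate; inconclusive = no clear call; three in four hits are not shown here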
* hit, by the source's call; i = inactive; ? = inconclusive; · = not tested or not shown; & = joins results of further samples.

SMILES	AF4-AF9 inh	HNF4A DNA FP	Ecoli growth	RanGTP-Impb inh	Vif A3G	UCH37 DUB inh	FGF22 binding
CC(=O)N(CN1C(=O)C2CC=CCC2C1=O)c1cccc(Cl)c1 (stereo not given)	·	-7.5	0.804	4.4	6.6%	-1.8	·
CN(C(=O)c1ccc(NC(=O)Cc2ccc(NC(=O)C3CCCN(C(=O)C4CCC4)C3)cc2)cc1)C1CCCC1 (stereo not given)	-1.4	2.9	0.689	·	-5.6%	5.0	i
CCOC(=O)C1CCCN(C(=O)c2cccc(S(=O)(=O)N(C)c3ccc(OC)cc3)c2)C1 (stereo not given)	2.2	-2.1	0.705	·	3.7%	-0.3	i
Cc1c(N=C/C=C2\N(C)c3ccccc3C2(C)C)c(=O)n(-c2ccccc2)n1C	-0.1	1.4	0.699	-1.3	9.0%	15.2	i
CSc1ccccc1NC(=O)c1ccc(C)o1	·	-3.6	0.689	-0.5	3.7%	0.2	·
O=C(COC(=O)COc1ccccc1)Nc1ccc(Br)cc1F	-3.8	-0.7	0.621	·	-1.6%	-0.4	i
COc1ccccc1NC(=O)COC(=O)C1CCCC1	-1.9	-1.4	0.685	·	·	1.0	i
O=C(NCCC1=CCCCC1)c1c(O)nc2sccn2c1=O	1.2	-0.2	0.662	-1.8	-7.5%	1.6	i
COc1ccc(CNC(=O)COc2ccc(F)cc2)cc1	-2.5	1.6	0.7	1.2	-1.0%	3.3	i
CCCCCC[n+]1ccccc1/C=C/c1ccc(N(C)C)cc1	18.7	120.7*	·	·	·	·	i
CCCCNC(=O)C1CCN(S(=O)(=O)c2ccc3c(c2)CC(C)N3C(=O)C2CC2)CC1 (stereo not given)	-0.4	4.2	0.713	2.6	·	7.1	i
CSc1ccccc1C(=O)Nc1ccc2c(c1)OCO2	0.0	2.7	0.691	2.2	-5.2%	3.5	i
CCc1ccc(NC(=O)CSc2nnc(-c3cccs3)n2CC)cc1	·	1.4	0.698	?	1.1%	-0.1	·
CC(C)C[C@H]1CNC(=S)N1CC1CCN(CC2CCC(C(C)(C)C)CC2)CC1 (stereo not given in full)	2.1	-1.4	·	·	-6.6%	·	i
CN(C)c1ccc(NC(=O)c2cccc(N3C(=O)C4C5C=CC(C5)C4C3=O)c2)cc1 (stereo not given)	·	1.9	0.71	-2.7	-10.0%&13.7%	1.7	·
CCN(CC(=O)NCc1cccs1)C(=O)c1ccc(NS(=O)(=O)c2cccc([N+](=O)[O-])c2)cc1	5.7	-1.5	0.625	3.1	-5.6%	1.4	i
Clc1cccc(Oc2ncc(CN3CCOCC3)s2)c1	·	0.7	0.694	0.1	?	2.5	·
CN(C)c1ccc(/C=N/NC(=O)CCCCCNC(=O)c2ccccc2)cc1	10.3	3.5	·	0.1	26.4%	·	i
CCC(CC)C(=O)N1c2ccc(F)cc2CCC1C (stereo not given)	·	0.1	0.691	1.3	5.6%	3.1	·
CC(C)CCN(N=O)[C@@H](Cc1ccccc1)CN(N=O)[C@@H](Cc1ccccc1)CN(C)N=O	4.8	-2.2	·	-0.8	11.6%	·	i
CC1CCN(C(=O)/C(=C/c2ccccc2Cl)c2ccccc2)CC1	·	1.1	0.728	-1.4	-6.6%	2.8	·
CCN(C(=O)CSc1nc(C)c(C)c(C)n1)C1CCS(=O)(=O)C1 (stereo not given)	-1.1	-0.7	0.67	·	-3.7%	-0.8	i
Cc1cc(NC(=O)CCC(=O)N(CC(C)C)C(C(=O)NC(C)(C)C)c2ccccc2Cl)no1 (stereo not given)	1.0	-2.0	0.715	-3.4	·	-0.8	i
Cc1cccc(CNC(=O)CCc2nnc(C3CCCCC3)o2)c1	3.1	3.8	0.721	8.6	0.1%	4.3	i
COC(=O)C(Cc1ccccc1)NC(=O)CCC(=O)NC(C)CCc1ccccc1 (stereo not given)	-1.8	-1.6	0.691	4.2	·	5.6	i

(continued)
SMILES	AF4-AF9 inh	HNF4A DNA FP	Ecoli growth	RanGTP-Impb inh	Vif A3G	UCH37 DUB inh	FGF22 binding
O=C(CN1C(=O)COc2ccc(Cl)cc21)Nc1ccc(N2CCOCC2)cc1	2.0	2.0	0.718	-0.6	·	6.5	i
Cc1nc2nc(C)c(NS(=O)(=O)c3ccc(C4CCCCC4)cc3)c(=O)n2[nH]1	-2.0	0.1	0.708	0.8	·	0.5	i
Nc1nc2ccc(-c3nc4ccccc4o3)cc2s1	·	-2.0	0.651	-1.1	5.6%	-31.6	·
Cc1oc(C(=O)Nc2ccc(C(=O)O)cc2)cc1COc1ccccc1	·	0.9	0.647	1.8	-3.3%	3.0	·
CCOC(=O)c1ccc(NC(=O)C2C3CCC(C3)C2C(=O)O)cc1 (stereo not given)	·	-0.9	0.721	3.9	-2.2%	4.8	·
O=C(NCc1nc2ccccc2[nH]1)C1=C[C@H](c2ccc3c(c2)OCO3)C[C@H](OCCCCO)O1	0.6&-1.1	-2.4	·	3.8	·	3.2	i
O=C(c1ccc2c(c1)OCO2)N1CCN(S(=O)(=O)c2ccccc2)CC1	1.5	3.3	0.741	0.2	·	-2.1	i
COc1ccc(-c2ccc3c(c2)S(=O)(=O)c2cccc(C(=O)N4CCN(c5c(Cl)cncc5Cl)CC4)c2C3=O)cc1OC	3.2	42.2*	0.735	·	·	0.0	i
O=C(NCC(c1ccc(F)cc1)N1CCOCC1)c1ccc(-c2ccccc2)cc1 (stereo not given)	0.2	3.4	0.649	·	·	0.4	i
Cc1cc(=O)oc2cc(OCC(=O)OCC(=O)N(CCC#N)c3ccccc3)ccc12	-4.1	1.6	0.693	-1.8	·	-10.5	i
O=C(CSc1ccc(-c2ccccc2)nn1)N1CCCCC1	1.3	-0.1	0.724	1.0	5.8%	-0.8	i
COc1ccc(S(=O)(=O)n2ccc(-c3cnc(-c4ccccc4)s3)n2)cc1	·	0.3	0.721	4.1	-6.4%	-36.4	·
CCc1nc2ccc(C(=O)Nc3ccc(OC)c(OC)c3)cn2c1N(C)Cc1ccc(OC)cc1	7.9	2.8	·	·	·	·	i
CC(C)[C@H](NS(=O)(=O)c1ccccc1)C(=O)OCC(=O)Nc1ccccc1Sc1ccccc1	·	-2.0	0.72	4.4	10.4%	6.5	·
Fc1cccc(Cl)c1CSc1ccc2nnc(-c3ccccn3)n2n1	1.1	-3.9	0.717	-0.2	-11.8%	-2.0	i
CCCn1c(=S)[nH]c2cc(C(=O)N3CCN(c4ccc(F)cc4)CC3)ccc2c1=O	-3.9	3.5	·	·	-9.9%	·	i
CCCCn1c(N)c(N(CCOC)C(=O)COC(=O)COc2cccc(C(C)=O)c2)c(=O)[nH]c1=O	-0.2	-3.1	0.676	5.8	-3.6%	2.1	i
CSc1ccccc1NC(=O)CCn1c(=O)oc2ccccc21	-4.4	-2.3	0.698	0.3	·	4.4	i
CC(=NNC(=O)c1ccncc1)c1cccc(Cl)c1	1.0	-0.7	0.661	·	2.0%	-2.2	i
O=C(NC(=S)Nc1cccc2c(O)cccc12)c1cccc(Br)c1	3.0	1.5	0.675	0.3	?	4.1	i
COc1cc([N+](=O)[O-])cc(/C=N/NC(=O)c2cc(-c3ccccc3)nc3ccccc23)c1O	9.5	17.3	·	-1.8	14.2%	·	i
CC(C)OCCCN1CN(S(=O)(=O)c2cccc(Cl)c2)c2nc3ccccc3nc21	·	3.3	0.709	?	-3.2%	-2.6	·
CCN(CC1CCCO1)C(=O)c1cc(COc2ccccc2SC)on1 (stereo not given)	-2.6	5.8	0.679	3.0	·	1.2	i
c1ccc(-n2c(Cc3cccnc3)nc3cnccc32)cc1	·	2.4	0.694	-2.9	0.0%	-0.4	·
S=C1NC2(CCCC2)N=C1c1ccccc1	7.5	2.2	0.649	-0.6	-1.3%	4.4	i

(cont.)
SMILES	AF4-AF9 inh	HNF4A DNA FP	Ecoli growth	RanGTP-Impb inh	Vif A3G	UCH37 DUB inh	FGF22 binding
CCCCN(C(=O)c1ccc(-c2ccc(Cl)cc2)o1)c1c(N)n(CCC)c(=O)[nH]c1=O	3.7	3.7	0.725	·	-0.4%	-17.1	i
O=[N+]([O-])c1ccc(N2CCOCC2)cc1NC(c1ccccc1)c1ccccc1	·	-1.6	0.696	1.6	·	5.7	·
CCOC(=O)NC(=O)/C(C#N)=C\Nc1ccc(Cl)cc1Cl	-2.3	1.0	0.69	0.4	-6.3%	2.1	i
COc1ccccc1N=Nc1ccc(N)c(C)c1	10.0	4.6	0.702	-1.9	0.7%	9.4	i
CCCCNC(=O)c1onc(CCl)c1C(=O)OC	-5.2	-1.2	0.684	1.2	?	1.8	i
CC(=O)c1ccc(NC(=O)CSc2cn[nH]n2)cc1	-0.8	1.9	0.685	2.8	·	1.9	i
O=C(O)CSc1nnc(Cn2nnc3ccccc32)n1CCc1ccccc1	·	-1.3	0.709	-4.0	8.7%	3.4	·
COc1cc(O)c2c(c1)OC(c1ccc(O)cc1)CC2=O (stereo not given)	-4.3	2.2	0.735	-2.2	?	3.4	i
O=C(c1ccc(NS(=O)(=O)/C=C/c2ccccc2)cc1)N1CCCCC1	-2.7	4.1	0.694	-1.3	-5.5%	1.9	i
Cc1ccc(C(=O)ONc2ccc(N=O)cc2)cc1	·	-0.9	0.74	1.6	3.2%	6.2	·
CCc1nnc(NC(=O)CSc2nnc(C(C)NC(=O)c3ccccc3)n2C)s1 (stereo not given)	-0.6	1.0	0.683	2.3	2.7%	5.1	i
CC1(OC(=O)CCc2ccccc2)C(=O)C=C2C=C(c3ccc(C#N)cc3)N(C(CO)CO)C=C2C1=O (stereo not given)	·	-1.1	0.725	-0.7	0.3%	-0.4	i
O=C1C=C(c2ccc3c(c2)OCO3)CCC1	·	-0.6	0.676	-3.5	·	-165.8	·
CC(/C=N/NC(=O)Cc1cccs1)=C\c1ccco1	·	7.8	·	-5.2	12.2%	·	·
COc1ccc(NC(=O)CCc2nnc3ccc(NCc4ccco4)nn23)cc1OC	2.7	-2.2	0.601	1.9	·	2.2	i
COc1ccc(NC(=S)NNc2ccc(C(=O)O)cc2)cc1	-0.7	-3.0	0.641	2.1	·	-0.6	i
COc1ccc(C(=O)N(C)CC(=O)Nc2cccc(F)c2)cc1S(=O)(=O)NC1CCCC1	-0.5	4.1	0.711	2.4	2.3%	1.0	i
Cc1ccc(C(C)C)c(OCCNS(C)(=O)=O)c1	·	-1.3	0.688	0.8	7.2%	1.6	·
CC(C(=O)N1CCCCCC1)c1ccc([N+](=O)[O-])cc1 (stereo not given)	1.4	-0.5	0.745	-1.5	0.5%	3.5	i
Cc1ccc(Cc2c(C)nc3nc(SCC(=O)NCc4ccco4)nn3c2C)cc1	·	13.7	0.728	2.3	20.4%&7.3%	1.2	·
O=C(Nc1ccccc1)N1CCN(c2ccc(F)cc2)CC1	·	-3.8	0.712	7.1	27.1%	2.0	·
Cc1nc(-c2ccccc2)sc1C(=O)Nc1ccccc1F	-3.0	-0.8	0.647	2.5	3.4%	5.2	i
O=C(COc1ccc(Cl)cc1)NCCS(=O)(=O)N1CCN(c2ccc(F)cc2)CC1	2.5	2.0	0.714	-0.2	·	3.5	i

Part of the list above in order of molecular weight, descending:
SMILES	AF4-AF9 inh	HNF4A DNA FP	Ecoli growth	RanGTP-Impb inh	Vif A3G	UCH37 DUB inh	FGF22 binding
COc1ccc(S(=O)(=O)n2ccc(-c3cnc(-c4ccccc4)s3)n2)cc1	·	0.3	0.721	4.1	-6.4%	-36.4	·
O=C(c1ccc(NS(=O)(=O)/C=C/c2ccccc2)cc1)N1CCCCC1	-2.7	4.1	0.694	-1.3	-5.5%	1.9	i
Cc1nc(-c2ccccc2)sc1C(=O)Nc1ccccc1F	-3.0	-0.8	0.647	2.5	3.4%	5.2	i

This is a subset (hit frequency here may not be typical).
